# Assay outcomes (PubChem BioAssay)
# D2 ag: activates the human D2 dopamine receptor | P14416 | DiscoveRx PathHunter D2 beta-arrestin, luminescence, 90 min; 100% = 57 uM dopamine signal | activation, % (test concentration not listed) | 360,000 compounds, 0.084% hits | AID 624465; in the data active = activation above about 40%; inconclusive = about 15% to 40%; inactive = below about 15%; also: compound concentration not given in the record; the text of the record calls up to 30% inactive
# Target sequence (P14416 whole entry, looked up): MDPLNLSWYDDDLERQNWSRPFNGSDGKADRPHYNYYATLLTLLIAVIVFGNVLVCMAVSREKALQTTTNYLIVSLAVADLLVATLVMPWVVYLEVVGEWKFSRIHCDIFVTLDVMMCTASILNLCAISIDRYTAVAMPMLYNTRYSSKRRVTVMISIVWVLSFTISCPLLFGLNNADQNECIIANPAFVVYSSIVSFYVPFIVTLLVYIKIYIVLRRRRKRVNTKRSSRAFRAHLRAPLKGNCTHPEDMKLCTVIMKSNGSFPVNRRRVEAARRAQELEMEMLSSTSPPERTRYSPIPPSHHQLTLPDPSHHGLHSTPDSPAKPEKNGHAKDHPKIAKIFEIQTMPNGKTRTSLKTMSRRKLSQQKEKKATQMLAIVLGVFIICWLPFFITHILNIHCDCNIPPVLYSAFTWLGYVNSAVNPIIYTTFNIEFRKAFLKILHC
#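 DiscoveRx PathHunter D2 beta-arrestin cells (2,100/well) attached overnight, then compound-stimulated 90 min at 37 C in HBSS/10 mM HEPES/0.1% Tween-20 buffer; beta-galactosidase complementation read by luminescence after 1 h at ambient temperature. Dopamine 57 uM final (EC100) as control.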
# CtBP-E1A blk: CtBP/E1A binding inhibition | AlphaScreen GST-E1A/His-CtBP binding, 1536-well; hits give low values; control for the full effect not named in the record | activity change, % (no concentration beside the values) | 340,000 compounds, 0.49% hits; in the data active means activity change below about -65%; inconclusive means about -30% to -65%; inactive means above about -30%; also: % is scaled to controls: 0 for no effect and ±100 for the full control effect
#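 Homogeneous bead-based format: GST-tagged E1A captured on glutathione donor beads, His-tagged CtBP on nickel acceptor beads; compounds precede bead addition by 2 h at 37 °C.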
# TRPML1 ag: activates the human TRPML1 channel; Q9GZU1; TRPML1-expressing cells, Ca2+ dye fluorescence, FDSS; host cell line not named in the record; reference of the full effect not given here; activation, % (test concentration not listed); 410,000 compounds, 0.12% hits; in the data active = activation above about 50%; inconclusive = about 30% to 50%; inactive = below about 30%; also: 0% is about no effect; the text of the record puts the active cut at 80%
# Target sequence (Q9GZU1 whole entry, looked up): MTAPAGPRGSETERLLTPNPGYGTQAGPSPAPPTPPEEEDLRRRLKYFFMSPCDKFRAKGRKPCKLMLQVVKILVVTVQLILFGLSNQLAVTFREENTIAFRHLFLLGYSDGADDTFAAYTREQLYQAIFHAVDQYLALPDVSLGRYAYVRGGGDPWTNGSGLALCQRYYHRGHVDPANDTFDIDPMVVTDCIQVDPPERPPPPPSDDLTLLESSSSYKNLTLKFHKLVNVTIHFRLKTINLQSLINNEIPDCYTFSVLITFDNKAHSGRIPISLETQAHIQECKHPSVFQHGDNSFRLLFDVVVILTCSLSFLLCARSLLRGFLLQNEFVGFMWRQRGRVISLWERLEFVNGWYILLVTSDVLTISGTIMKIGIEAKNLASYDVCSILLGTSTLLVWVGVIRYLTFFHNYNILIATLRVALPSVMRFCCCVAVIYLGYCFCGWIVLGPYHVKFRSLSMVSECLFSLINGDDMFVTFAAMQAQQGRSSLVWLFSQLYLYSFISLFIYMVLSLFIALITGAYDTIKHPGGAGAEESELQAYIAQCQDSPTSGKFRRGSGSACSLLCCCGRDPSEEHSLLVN
#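 Tet-induced TRPML1-DL cells, 1,500 per well, cultured overnight, were loaded with a no-wash Ca2+ dye for 45–90 min. Calcium fluorescence was recorded on the FDSS for 110 s after compound addition, before the EC80 agonist (4 uM 54-4) was added.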
# TRPML1 blocker: blocks the human TRPML1 channel. activity change, negative = inhibition, % (concentration not given with the values). 390,000 compounds, 0.02% hits. TRPML1-inducible cells, Ca2+ dye fluorescence, FDSS; hits give low values; inhibition of EC80 agonist-evoked calcium signal; in the data active means activity change below about -50%; inconclusive means about -30% to -50%; inactive means above about -30%;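 also: stimulus is agonist 54-4 at its EC80 concentration; % is scaled to controls: 0 for no effect and ±100 for the full control effect; the text of the record puts the active cut at -80%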
#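 TRPML1-DL cells, Tet-induced overnight (~16 h, 37 °C) at 1,500 cells/well, were loaded with Ca8 no-wash dye plus quencher for 45-90 min at room temperature. Compounds were pinned during FDSS kinetic reading; agonist 54-4 at EC80 (4 uM final) then added.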
# PINK1 modulator: changes PINK1 expression; 410,000 compounds, 0.2% hits; PINK1 immunofluorescence, high-content cytometry, 24 h; Potency, µM (doses to about 76.6 µM), without a hit: top-dose activation (PINK1 increase), hits mostly activators; AID 624263; active = well fitted activation curve with a large enough effect; inconclusive = small, poorly fitted or top-dose-only effect; inactive = flat fitted curve, though single readings scatter; cell line not stated here;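 also: potency is read from the fitted curve at half-maximal effect; % of control where 0% means no effect; nearly all actives have a fitted effect of over 65% in size; a mitochondrial uncoupler was the plate control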
#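 Fluorescence from anti-PINK1 antibody, together with nuclear and cell stains, was scanned on a laser-scanning cytometer. Before staining, stable-line cells were incubated 24 hours with compounds at 5 concentrations; primary antibody 12 h at 10 degrees C.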
# Six1-Eya2 blk: Six1/Eya2 interaction inhibition; Q15475+O00167; AlphaScreen GST-Six1/His-Eya2 binding, biochemical; hits give low values; control for the full effect not named in the record; activity change, % (concentration not given with the values); 360,000 compounds, 0.56% hits; AID 651725; in the data active = activity change below about -65%; inconclusive = about -30% to -65%; inactive = above about -30%; also: % is scaled to controls: 0 for no effect and ±100 for the full control effect
#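 Six1/Eya2 binding was read as AlphaScreen signal after compounds were pinned into GST-Six1 plus His-tagged Eya2 (5X stock 250/500 nM) in pH 8.0 Tris/NaCl/TCEP buffer, beads added, then incubated 1 h, 37 C, dark.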
# Numbers without * were called inactive; ? = inconclusive; nt = no result given; [ ] = remark or other dose.
structure	PINK1 modulator	TRPML1 blocker	D2 ag	Six1-Eya2 blk	TRPML1 ag	CtBP-E1A blk
COc1ccc(NC(=O)CSc2nnc(NC(=O)C3CC3)s2)cc1OC	-1.0%	-6	-6.0	-1	1.1	9
CCN(CC)S(=O)(=O)c1ccc(N2CCCC2)c(NC(=O)C2CCCCC2)c1	2.4%	-3	-8.4	1	-0.4	2
O=c1cc(-c2ccccc2)[nH]n1-c1nc2ccccc2s1	0.6%	-6	-0.2	-8	0.1	14
CCc1cccc(C)c1NC(=O)CN1C(=O)NC(CCc2ccccc2)C1=O (stereo unspecified)	-2.6%	1	-2.0	10	-0.2	2
O=C(/C=C/c1cccc([N+](=O)[O-])c1)N(c1ccccn1)c1ccccn1	0.1%	-16	-4.0	-4	0.6	-6
CC1(C)C(=O)OC(c2ccco2)C(C)(C)C1=O (stereo unspecified)	-0.1%	4	-0.8	2	1.4	-5
COc1ccc(C(=O)c2oc3ccccc3c2NC(=O)c2cccc(OC)c2)cc1	3.1%	5	nt	nt	-0.4	nt
O=C(CCC1(C(=O)O)CCC(=O)NC1)NCc1ccccc1 (stereo unspecified)	1.5%[38.3 µM]	5	-0.2	2	-0.1	12
CCn1c(O)c(N=Nc2ccc3ccccc3n2)c2ccccc21	-0.1%	6	-0.2	6	-0.7	4
CCOC(=O)C1(Cc2cccc(F)c2)CCN(CCCn2cccn2)CC1	-0.3%	-2	-0.4	3	0.9	6
Cc1cc(Sc2nc(NC(C)C)nc(NC(C)C)n2)nc(Cl)n1	2.1%	-13	4.2	15	3.5	5
CCC(CC)C(=O)Nc1c2c(nn1-c1ccc(C)cc1)CS(=O)(=O)C2	-0.4%	-10	2.6	2	-1.3	-9

# The list continues.
structure	PINK1 modulator	TRPML1 blocker	D2 ag	Six1-Eya2 blk	TRPML1 ag	CtBP-E1A blk
Cc1ccc(CN2CC34C=CC(O3)C(C(=O)NCc3ccc5c(c3)OCO5)C4C2=O)cc1 (stereo unspecified)	0.0%	2	-1.9	3	0.3	6
O=C(CNC(=O)Cn1ccc2ccccc2c1=O)NCCCN1CCCCCC1	-0.9%	-2	-4.1	-3	0.0	-1
CC(C)(C)C(=O)Nc1ccc(-c2nc3ccccc3s2)cc1	1.5%	-14	nt	nt	0.8	nt
CCN(CC)S(=O)(=O)c1cccc(NC(=O)COC(=O)c2cc(=O)c3ccccc3o2)c1	0.8%	-13	-1.1	-3	-0.8	nt
COc1cc(OC)cc(C(=O)NCC(=O)OC2CCOC2=O)c1 (stereo unspecified)	-1.9%	2	0.7	0	0.0	5
O=C(COn1nnc2ccc(S(=O)(=O)N3CCOCC3)cc21)NCCc1ccccc1	-0.2%	3	1.8	14	0.3	9
CC(CN1CCOCC1)OC(=O)C(C)(c1ccccc1)c1ccccc1 (stereo unspecified)	-2.8%	-3	-2.8	9	0.1	-2
COc1cc(C(=O)NCC(=O)NCCN2C(=O)S/C(=C\c3ccccc3Cl)C2=O)cc(OC)c1OC	-2.3%	1	-0.1	-5	-0.8	1
Cc1ccc(OCc2cc(C(=O)N(C)Cc3cnn(C)c3)no2)cc1C	-1.1%	6	-3.4	-1	-0.7	3
COCCCNC(=S)NNC(=O)C1CC1c1ccc(C(C)(C)C)cc1 (stereo unspecified)	-0.6%	0	-0.1	-2	2.5	nt
CCOC(=O)c1c(CN2CCN(C)CC2)n(C)c2cc(Br)c(OC)cc12	-1.3%[38.3 µM]	-16	0.3	-18	0.6	-17
O=C1NC[C@H](Cc2ccc(O)cc2)N(C[C@@H]2CCCN2C[C@H](Cc2ccccc2)N2C[C@H](Cc3ccc(O)cc3)N(CCc3ccccc3)C(=O)C2=O)C1=O	-0.3%	nt	nt	2	-0.3	-2

# Further compounds.
structure	PINK1 modulator	TRPML1 blocker	D2 ag	Six1-Eya2 blk	TRPML1 ag	CtBP-E1A blk
COc1ccc(CC(N)c2csc(NC(=O)Nc3ccccc3C(C)C)n2)cc1 (stereo unspecified)	-1.6%	-15	9.3	-3	-0.4	-26
CCOc1ccc(C(=O)Nc2cc3c(cc2N2CCCC2)n(CC)c(=O)n3CC)cc1OCC	2.6%	-11	5.4	0	0.1	-5
O=C(NCc1ccc(F)cc1)C(c1ccccc1)N(C(=O)c1csnn1)C1CCCC1 (stereo unspecified)	1.6%	10	8.8	2	3.5	22
COC(=O)C(N)Cc1ccc(OC)c([N+](=O)[O-])c1 (stereo unspecified)	-2.0%	7	-6.2	3	-0.8	2
O=C(c1ccccc1-c1nc(-c2ccc(F)cc2)no1)N1CCCC1	-0.6%	2	-1.4	-8	-0.4	7
O=C(CN1C(=O)NC2NC(=O)NC21)N/N=C/c1ccc(F)cc1 (stereo unspecified)	1.8%	-13	-5.0	1	-0.7	10
Cc1nc2ccccc2n1CCc1nc2c3ccccc3nc(SCc3ccccc3F)n2n1	4.4%	-4	nt	nt	2.2	nt
c1ccc(C(Cc2nc(-c3ccccn3)no2)c2ccccc2)cc1	0.9%	6	1.6	1	3.8	0
O=C(COC(=O)CCOc1ccccc1)NCc1ccco1	3.2%	-9	-2.1	-11	-1.2	10
O=C(/C=N/O)NCCCN1CCCCCC1	nt	8	0.6	2	-0.1	7
Cc1ccccc1NC(=O)NCCCN1CCCC1=O	0.8%	16	4.7	0	0.1	3
Cc1c(NC(=O)COC(=O)c2cc3c4ccccc4n(C)c3s2)c(=O)n(-c2ccccc2)n1C	-0.1%	-6	-2.4	-3	1.2	-1

# Continued (three carried over from the part before).
structure	PINK1 modulator	TRPML1 blocker	D2 ag	Six1-Eya2 blk	TRPML1 ag	CtBP-E1A blk
O=C(/C=N/O)NCCCN1CCCCCC1	nt	8	0.6	2	-0.1	7
Cc1ccccc1NC(=O)NCCCN1CCCC1=O	0.8%	16	4.7	0	0.1	3
Cc1c(NC(=O)COC(=O)c2cc3c4ccccc4n(C)c3s2)c(=O)n(-c2ccccc2)n1C	-0.1%	-6	-2.4	-3	1.2	-1
CCn1c(COc2ccc(Cl)cc2)nnc1SCC(=O)Nc1ccc2c(c1)OCCO2	4.2%	-2	-1.8	-3	-0.2	-1
O=C1C(=O)N(CCCn2ccnc2)C(c2ccc(Cl)cc2)/C1=C(\O)c1ccc2c(c1)OCCO2 (stereo unspecified)	2.7%	9	5.1	-15	-0.1	nt
CCCCOc1ccc(C(=O)Nc2cccc(-c3nc4ccccc4o3)c2C)cc1	0.9%	-8	nt	nt	-0.1	nt
CCOC(=O)C1CCN(c2ncnc3c2c(-c2ccccc2)cn3-c2ccc(Cl)cc2)CC1	0.7%	-27	nt	nt	?	nt
COc1ccc(CN2C(=O)CCCC2(C)c2nc3ccccc3[nH]2)cc1 (stereo unspecified)	-0.3%	nt	nt	0	-0.7	10
COc1ccc(-c2nc3c(C)cc(Br)cn3c2Cc2ccsc2)cc1OC	-0.3%	-14	-1.4	-15	0.8	0
Cc1n[nH]c(C)c1CCN(C)Cc1cn(C)nc1-c1ccc2c(c1)OCCO2	0.2%	10	6.2	1	-0.2	10
CCCN1CCN(C(=O)Cn2cccc2C(=O)c2ccccc2)CC1	-1.0%	6	-3.6	-1	3.5	1
O=C(NCc1cccs1)C1CCCN(c2nc3ccccc3o2)C1 (stereo unspecified)	0.1%[38.3 µM]	-10	2.0	2	0.0	-7
CN(C(=O)COC(=O)c1ccc(S(=O)(=O)N2CCOCC2)cc1)C1CCCCC1	-0.1%	9	-1.7	9	-1.2	-4
COC(=O)[C@H](Cc1ccccc1)NC(=O)O[C@H]1C(=O)c2ccc(OC)cc2O[C@@H]1c1ccc2c(c1)OCO2	0.3%	-30	-0.3	-4	-0.1	-1
CC(NC(=O)CCC(=O)NCc1ccc(F)cc1)c1ccccc1 (stereo unspecified)	2.6%	-23	-3.8	0	0.9	12

# Remaining list, next part
structure	PINK1 modulator	TRPML1 blocker	D2 ag	Six1-Eya2 blk	TRPML1 ag	CtBP-E1A blk
O=C(COc1ccc(Cl)cc1Cl)N/N=C1\CCCc2ccccc21	2.7%	32	-2.3	-2	6.4	1
C=CCNC(=O)CC12CC3CC(C1)CC(CC(=O)NCC=C)(C3)C2	-0.2%	-11	-2.8	8	-0.3	0
N#Cc1ccccc1COC(=O)c1ccc2c(c1)OCCO2	-2.3%	-17	4.1	0	-0.3	-2
CCOC(=O)C1CCCN(C(=O)c2ccc(C)c(NC(=O)c3nsc4ccccc34)c2)C1 (stereo unspecified)	-1.6%	45	nt	nt	0.7	nt
COc1ccc(CN2C(=O)NC3(CCOc4ccccc43)C2=O)cc1F (stereo unspecified)	-1.5%	-19	-3.1	2	0.4	3
COc1cc(OC)nc(Oc2ccccc2/C=N/O)n1	3.0%	-12	0.7	0	-1.1	nt
CC(C)CN(C(=O)CN(C)CC(=O)Nc1ccc(Cl)c(C(F)(F)F)c1)c1c(N)n(CC(C)C)c(=O)[nH]c1=O	-0.1%	6	-2.0	-5	0.9	8
CC1=NNC(=O)C1CCC(=O)N/N=C\c1ccc(Cl)c(Cl)c1 (stereo unspecified)	-0.3%	-18	1.4	-5	-0.7	1
O=C(c1cc2ccccc2oc1=O)N1CCN(c2ccc(Cl)cc2)CC1	1.0%	17	nt	nt	-0.1	nt
CCN(CC)S(=O)(=O)c1ccc(N2CCOCC2)c(NC(=O)Cc2ccccc2F)c1	2.4%	14	-5.7	5	-0.6	3
O=C1C(Cl)=C(N2CCCCC2)C(=O)N1c1ccccc1	-4.3%[38.3 µM]	34	1.3	17	1.2	11
O=C(Cc1csc(NC(=O)Nc2ccc(Cl)cc2)n1)NCc1cccnc1	0.0%	8	4.9	-1	0.6	-3

# (list continues)
structure	PINK1 modulator	TRPML1 blocker	D2 ag	Six1-Eya2 blk	TRPML1 ag	CtBP-E1A blk
O=S1(=O)CCC(N=Nc2c(O)n(Cc3ccccc3)c3ccccc23)C1 (stereo unspecified)	1.7%	-11	-4.8	-11	1.0	-11
Cc1noc(C)c1COC(=O)c1ccccc1NC(=O)Cc1ccccc1	3.2%	6	-2.0	6	4.7	17
Cc1cc(C)nc(Nc2n[nH]c(-c3cccc4ccccc34)n2)n1	1.5%	8	5.2	-10	0.8	nt
CCn1c(SCC(=O)N2CCC(C)CC2)nc2c([nH]c3ccccc32)c1=O	4.6%	3	-3.0	9	-0.1	-3
CCN1C(=O)[C@@H]2[C@@H](c3ccc(-c4ccc(OC)cc4)c(OC)c3)N3CCC[C@@]3(C(=O)OC)[C@@H]2C1=O	1.4%	0	2.5	-13	-0.3	0
N#C/C(C(N)=O)=c1/ccc2c(c1)N1C3=C(CCCC3)CC3CCCCC31N=2 (stereo unspecified)	-0.4%	-10	2.9	-22	2.9	-11
CCCC(=O)Nc1c2c(nn1-c1ccc(C)cc1)CS(=O)(=O)C2	2.1%	nt	-1.2	0	nt	1
COc1ccc(OCCCC(=O)Nc2cccnc2)cc1	1.7%	11	-2.8	-2	1.0	2
CCOc1cc(CNCc2ccccn2)cc(Cl)c1OCC	0.1%	22	-2.7	?	0.3	?
O=C(NCCCN1CCCC1=O)C(=O)NCC1OCCCN1S(=O)(=O)c1ccccc1 (stereo unspecified)	-0.7%	-3	-3.5	4	-0.3	3
